SARS PLpro yeast – blocks SARS-CoV papain-like protease in a yeast assay; hit rate 0.19% among 330,000; AID 485353; Potency, µM (top dose mostly 32.9 µM), for inactives: at the top dose activity, positive = growth rescue; S. cerevisiae expressing SARS-CoV PLpro, growth rescue; control for the full effect not named in the record; active means well fitted rising curve with a large enough effect; inconclusive means small, poorly fitted or top-dose-only effect; inactive means no such curve, though single readings can be large or run the other way; further: 0% is about no effect; nearly all actives have a fitted effect of over 55% in size; growth read by luminescence after 48 h
NS1 function inh – inhibitors of influenza NS1 protein function | S. cerevisiae slowed by influenza A NS1, growth recovery by OD600 | hit rate 0.4% among 270,000 | Potency, µM (series often up to 46.1 µM), without a hit: at the top dose activity, positive = more growth; active means well fitted rising curve with a large enough effect; inconclusive means small, poorly fitted or top-dose-only effect; inactive means no such curve, though single readings can be large or run the other way; further: nearly all actives have a fitted effect of over 50% in size
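S. cerevisiae expressing influenza A NS1, grown in glucose, washed, then diluted 1:100 into pH 6.0 -URA galactose medium with 23 nl compound. Growth recovery read as OD600; NS1-free strain serves as control.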
StopGo reporter – lowers the luciferase signal of an FMDV 2A StopGo reporter; AID 1159524; Potency, µM (highest dose often 57.9 µM), without a hit: top-dose signal change, negative = less light; human cells with a luciferase reporter of 2A StopGo recoding; control for the full effect not named in the record; hit rate 1.2% among 410,000; active = well fitted falling curve with a large enough effect; inconclusive = small, poorly fitted or top-dose-only effect; inactive = no such curve, though single readings can be large or run the other way; tested in HEK293T cells; further: on the % scale 0 is the no-effect control and ±100 the full control effect; nearly all actives have a fitted effect of over 45% in size; luciferase light after 4 h
Cruzain Triton – cruzain (T. cruzi) inhibition with detergent; hit rate 0.43% among 200,000; P25779; AID 1478; Potency, µM, without a hit: max response, negative = inhibition, most hits filed as inhibitors; purified cruzain, Z-FR-AMC fluorescence, 0.01% Triton;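 further: plate controls were neutral wells for no effect and buffer without enzyme for full effect; nearly all actives have a fitted effect of over 40% in size; top concentration of the series not given in the record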
Target sequence (P25779 123-467 limits assumed): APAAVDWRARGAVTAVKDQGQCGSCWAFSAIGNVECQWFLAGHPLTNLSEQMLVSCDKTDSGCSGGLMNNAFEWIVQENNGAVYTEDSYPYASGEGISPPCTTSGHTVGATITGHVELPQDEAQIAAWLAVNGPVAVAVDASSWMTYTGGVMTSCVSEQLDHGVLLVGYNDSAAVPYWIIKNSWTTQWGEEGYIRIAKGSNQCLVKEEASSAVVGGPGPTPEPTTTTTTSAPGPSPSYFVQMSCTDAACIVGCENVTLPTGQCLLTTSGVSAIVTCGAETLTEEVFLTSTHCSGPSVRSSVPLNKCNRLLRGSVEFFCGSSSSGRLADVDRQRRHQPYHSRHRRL
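Sodium acetate buffer (100 mM, pH 5.5) containing 5 mM DTT and 0.01% Triton X-100 hosted 1.5 nM cruzain and test compound for 15 min at room temperature. Cleavage of 2 uM Z-FR-AMC was then tracked by fluorescence.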
Cruzain inh noDet – blocks cruzain activity in detergent-free assay; purified cruzain, Z-FR-AMC fluorescence, no detergent; P25779; AID 1476; hit rate 2.3% among 200,000; Potency, µM, for the others: max response, negative = inhibition, hits mostly inhibitors;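 further: plate controls were enzyme without inhibitor for no effect and buffer without enzyme for full effect; nearly all actives have a fitted effect of over 40% in size; top concentration of the series not given in the record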
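Detergent-free condition (0.00005% Triton X-100) in acetate buffer pH 5.5 with DTT. 1.5 nM enzyme and compound were pre-mixed 15 min, then 2 uM Z-FR-AMC substrate added; reaction progress from fluorescence change between first and third reads (60 s).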
Lassa entry inh – blocks Lassa virus binding to or entry into cells | hit rate 1.2% among 300,000 | AID 540256 | Potency, µM (top dose mostly 37.9 µM), inactives show at the top dose activity change, negative = inhibition, usual class: inhibitors | Lassa virus pseudotype entry inhibition, cell reporter; control for the full effect not named in the record; active means well fitted inhibition curve with a large enough effect; inconclusive means small, poorly fitted or top-dose-only effect, or effect the other way; inactive means flat fitted curve, though single readings scatter; tested in HEK293 cells; further: on the % scale 0 is the no-effect control and ±100 the full control effect; nearly all actives have a fitted effect of over 50% in size; luciferase read-out
RE007 growth inh – less growth of the S. pombe RE007 Vpr strain. S. pombe RE007 Vpr strain, BacTiter-Glo ATP luminescence, 24 h; control for the full effect not named in the record. Potency, µM (series often up to 92.2 µM), for inactives: at the highest dose activity change, negative = less growth. hit rate 0.21% among 360,000. AID 651644; active = well fitted falling curve with a large enough effect; inconclusive = small, poorly fitted or top-dose-only effect; inactive = no such curve, though single readings can be large or run the other way;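 further: on the % scale 0 is the no-effect control and ±100 the full control effect; nearly all actives have a fitted effect of over 50% in size; the assay follows cell death caused by Vpr and the record does not say whether a fall means rescue or toxicity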
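Fission yeast RE007 carrying one integrated HIV-1 vpr copy, seeded at OD 0.01 in PMG+AL medium with 23 nL pinned compound. Grown 24 h at 30 degrees; viability read by BacTiter-Glo luminescence after 5 min.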
MARV entry inh – blocks Marburg virus binding to or entry into cells; Marburg virus pseudotyped entry inhibition, cell reporter; control for the full effect not named in the record; about a third of the inactives were read at about 46 µM; Potency, µM (top dose mostly 37.8 µM), inactives show at the highest dose activity change, negative = inhibition, usual class: inhibitors; hit rate 1.8% among 300,000; active = well fitted inhibition curve with a large enough effect; inconclusive = small, poorly fitted or top-dose-only effect, or effect the other way; inactive = flat fitted curve, though single readings scatter; tested in HEK293 cells; about a fifth of its hits are not listed in these tables; further: on the % scale 0 is the no-effect control and ±100 the full control effect; luciferase read-out
Starred values were filed as active, the others as inactive; ? = inconclusive; . = not tested or not shown; & = joins results of further samples; [ ] = remark or other dose. Unless noted, the call rests on the fitted dose curve; in most records, active means well fitted curve in the direction sought with a large enough effect; inconclusive means small, poorly fitted or top-dose-only effect, or another doubt; inactive means no such curve, though single readings can be large; an effect the other way counts as inactive or inconclusive. Potency means the concentration at half of the fitted maximal effect.

SMILES | SARS PLpro yeast | NS1 function inh | StopGo reporter | Cruzain Triton | Cruzain inh noDet | Lassa entry inh | RE007 growth inh | MARV entry inh
N#Cc1ccc(-c2ccc(F)cc2)nc1Oc1ccc(Cl)c(Cl)c1 | 4% | 8% | 10% | 4.1% | -9% | ? | 1% | ?
O=[N+]([O-])c1cc(-n2cccc2)ccc1N1CCOCC1 | -2% | -8% | -19% | . | . | -1% | -13% | ?
ClCCN1CCSCC1 | . | . | -4% | . | . | -15%[46.1 µM] | -16% | -5%[46.1 µM]
COc1ccccc1OCC(=O)N(Cc1nc(-c2ccc(Cl)cc2)no1)C(C)C | -11% | -53% | -15% | -4.5% | ? | . | -3% | .
CCCC(=O)N1CCCC(c2nc(-c3cccc(OC)c3)no2)C1 (centres undefined) | -1% | -3% | 18% | . | . | ? | -9% | ?
O=[N+]([O-])C1=CC=C2C(=NC3(CCCCC3)N2O)C1=NCCO | -3% | 8% | ? | -3.6% | -5% | -1% | -29% | ?
CC(=O)Nc1ccc(NC(=O)C(C)OC(=O)/C=C/c2cccs2)cc1 (centres undefined) | 0% | . | -14% | . | . | ? | 4% | ?
COc1cc(/C=C/C(=O)NC(C)CCc2ccccc2)cc(OC)c1OC (centres undefined) | -1% | -8% | 0% | -5.5% | ? | 21% | 11% | ?
O=C(COC(=O)c1cccnc1Cl)Nc1cccc(S(=O)(=O)N2CCCCC2)c1 | 1% | . | -13% | . | . | -3%[46.1 µM] | 11% | 14%[46.1 µM]
O=C(CN1C(=O)NC2(CCCC2)C1=O)OCC(=O)c1cccc(Cl)c1 | 1% | . | -10% | . | . | 20% | 21% | 8%[46.1 µM]
CCN(CCO)C(=O)c1ccc2nc(Cc3ccc(OC)cc3)oc2c1 | . | . | 16% | . | . | ? | -4% | -8%[46.1 µM]
COC(=O)C(Cc1cnc[nH]1)NC(=O)C1CCC(=O)N1 (centres undefined) | 0% | 1% | -4% | 3.3% | 10% | 15% | -23% | 22%
Cc1ccc(C2=NN(CC(=O)NCCCN(CC(C)C)CC(C)C)C(=O)CC2)cc1 | . | . | -5% | -1.3% | -18% | 4%[46.1 µM] | . | .
C[C@@H](CN1C2=NC[C@H](Cc3ccc(O)cc3)N2C[C@H]1Cc1ccc(O)cc1)NC(=O)CCC1CCCCC1 | -1% | -5% | -17% | . | . | . | 0% | .
CC(=O)Nc1ccc(S(=O)(=O)N(Cc2ccccc2)c2ccccc2)cc1 | 0% | 2% | -17% | . | . | ? | -11% | -5%[46.1 µM]
CCOC(=O)c1cnn(-c2ccc(C(=O)Nc3ccc(C(C)=O)cc3)cc2)c1N | . | . | 0% | -0.3% | ? | ? | . | .
Cc1ccc(NS(=O)(=O)c2c(C)[nH]c(=O)[nH]c2=O)cc1C | 18% | 2% | . | 2.2% | -13% | 10% | 3% | -2%
Cc1ccc(C(=O)N/N=C\c2ccccc2[N+](=O)[O-])cn1 | -1% | . | 39%[activator] | . | . | 7% | -6% | 8%
CCOc1nc(-c2ccc(C)cc2)ccc1-c1noc(COC)n1 | 0% | -26% | -4% | -3.0% | ? | 2% | -8% | -4%
Cc1cccc(NC(=O)CCS(=O)(=O)c2cccc3nonc23)c1C | 3% | -15% | 6% | . | . | . | 6% | 28%[46.1 µM]
O=C(O)CN1C(=O)CSc2ccccc21 | -2% | -6% | -8% | -0.5% | 2% | 0% | -8% | 18%
Cc1cc2ccccc2c(=O)n1CC(=O)NCCC1=CCCCC1 | -1% | . | -10% | . | . | 4% | 1% | 2%
COc1ccc2nc(SCc3ccccc3C)nc(C)c2c1 | -13% | -4% | 22% | -5.3% | 7% | 11% | 5% | ?
CCc1noc(C)c1C(=O)Nc1ccc(S(=O)(=O)N2CCCCC2)cc1 | -1% | . | -13% | . | . | -6% | 0% | -29%[46.1 µM]
CN(C1(C)CCS(=O)(=O)C1)S(=O)(=O)c1ccc2ccccc2c1 (centres undefined) | 1% | . | -16% | . | . | ? | 23% | 3%[46.1 µM]

(next part)
SMILES | SARS PLpro yeast | NS1 function inh | StopGo reporter | Cruzain Triton | Cruzain inh noDet | Lassa entry inh | RE007 growth inh | MARV entry inh
CCNC(=O)/C(C#N)=C/c1c(N(Cc2ccccc2)Cc2ccccc2)nc2ccccn2c1=O | ? | 27% | -25% | -9.8% | ? | ? | 31% | ?
CC1CCCC(NC(=O)COC(=O)/C=C/c2ccc(S(=O)(=O)N3CCOCC3)cc2)C1C (centres undefined) | -1% | -9% | 22% | . | . | 4% | 5% | 9%[46.1 µM]
Cc1cc(-c2csc(N)n2)c(C)n1-c1ccc(Cl)c(Cl)c1 | ? | 14% | -7% | -8.1% | 13µM* | 26% | 1% | -2%
COC(=O)c1cccnc1NC(=S)NC1CCCCC1 | 3% | . | 31%[activator] | . | . | 19% | 1% | 5%[46.1 µM]
COc1ccc(-c2cc(C(=O)NCc3ccccc3)c3c(-c4ccccc4)[nH]nc3n2)cc1 | . | . | 7% | -2.4% | -13% | 2%[46.1 µM] | . | .
FC(F)(F)c1cccc(N2Cc3ccccc3C2)c1 | -4% | -13% | 37%[activator] | -4.1% | -5% | 7% | -10% | -2%
FC(F)(F)c1ccc(NC(=S)NCc2ccccc2)cc1 | -4% | . | 12% | . | . | -10% | 7% | ?
Cc1ccc(C(=O)Nc2ccccc2N2CCN(C(=O)C(C)C)CC2)cc1 | -1% | -67% | -28% | 1.2% | 0% | ? | 14% | 3%
Cc1nc2ccccc2c(=O)n1/N=C/c1ccncc1 | 2% | -4% | 35% | 0.7% | -4% | 6% | 20% | -5%
COc1ccc(C(=O)NCC(=O)N2CCNC(=O)C2)cc1OC | 2% | -13% | -10% | . | . | 3%[46.1 µM] | 4% | 3%[46.1 µM]
C[n+]1ccccc1/C=N/O | -4%&4% | 5%&8% | -9%&2%&-15% | 0.1%&-2.7%&-0.8% | 10%&9%&-2% | 3%&1% | -18%&3%[18.4 µM] | 2%&2%&2%&2%&1%
Cc1c(C(=O)OCC(=O)NC(C)c2ccccc2)oc2ccccc12 (centres undefined) | -1% | 14% | -19% | . | . | . | 6% | .
Cc1cc(C)c(C(=O)c2ccccc2)c(C)c1 | . | . | -13% | . | . | 7%[46.1 µM] | 0% | 2%[46.1 µM]
O=C(c1cc(COc2ccc(F)cc2Cl)on1)N1CCN(c2cnccn2)CC1 | -6% | -59% | -10% | . | . | 0% | 3% | -16%
O=C(CSCc1ccc(Cl)cc1)Nc1cccc(C(=O)Nc2ccccc2C(=O)O)c1 | -14% | 25% | -8% | -16% | -1% | 15% | 19% | 12%
C=C(C(=O)c1ccccc1)C(C)CC(=O)c1ccccc1 (centres undefined) | -59% | -15% | 28µM* | -5.1% | 3% | ? | 2% | ?
O=C(NCC1CCCO1)c1cccc(NC(=O)c2ccccc2)c1 (centres undefined) | -1% | 13% | -7% | . | . | 3%[46.1 µM] | 5% | ?
CCOc1ccc(-n2nnc3c(=O)n(CC(=O)c4ccccc4)cnc32)cc1 | -4% | -21% | ? | -1.3% | -11% | . | 0% | .
CC(C)C(=O)Nc1ncc(Cc2cccc(Cl)c2)s1 | 12% | -2% | -20% | . | . | -35% | -14% | ?
CC(C)C(NC(=O)c1ccccc1Cl)C(=O)OCc1nc2scc(-c3ccccc3Cl)c2c(=O)[nH]1 (centres undefined) | 0% | 9% | ? | -12% | 25µM* | -1% | -7% | -9%
Cc1cccc(C)c1NC(=O)c1oc2ccc3c(c2c1C)C(=O)CC(C)(C)O3 | . | . | -23% | -13% | 19% | ? | . | .
O=C1Cc2ccccc2Sc2ccc(O)cc21 | -56% | -52% | -21% | -11% | -12% | 6% | -10% | ?
CC(C)CC(c1nnnn1C(C)(C)C)N1CCN(Cc2ccccc2)CC1 (centres undefined) | 0% | -1% | 0% | . | . | -15% | -6% | ?
COc1ccc(C2SCC(=O)N2c2nc3ccccc3s2)cc1 (centres undefined) | -1% | 11% | -21% | . | . | . | -8% | .
COc1ccccc1C(=O)N/C(=C/c1ccc(Br)cc1)C(=O)NCCCn1ccnc1 | -4% | 3% | 33%[activator] | . | . | . | -3% | .
COc1ccc(OCc2cc(/C=N\NC(=O)c3ccccc3)ccc2OC)cc1 | -3% | -36% | 9% | . | . | ? | -9% | ?
O=C(c1ccc(COc2ccc(Br)cc2)o1)N1N=C(C(F)F)CC1(O)C(F)F (centres undefined) | 11% | -6% | 25µM* | -7.7% | -19% | -56% | 7% | ?
CC(C)OC(=O)c1c(NC(=O)COc2cccc(Br)c2)sc2c1CCCC2 | . | . | 0% | -4.0% | 8% | -1%[46.1 µM] | . | .
O=C(NCC1CCCO1)C(c1cccnc1)N(C(=O)Cc1cccs1)c1cccnc1 (centres undefined) | 3% | -3% | . | 3.3% | -6% | 6% | 4% | 2%
O=C(Nc1ccc(N2C(=O)CCC2=O)cc1Cl)c1cccs1 | 1% | -1% | 20% | . | . | -1% | -2% | -16%[46.1 µM]

Part of the list above, reduced to StopGo reporter and Cruzain inh noDet.
structure,StopGo reporter,Cruzain inh noDet
COc1ccc(OCc2cc(/C=N\NC(=O)c3ccccc3)ccc2OC)cc1,9%,.
O=C(c1ccc(COc2ccc(Br)cc2)o1)N1N=C(C(F)F)CC1(O)C(F)F (centres undefined),25µM*,-19%

Complete entries as entered above. Order of values: SARS PLpro yeast	NS1 function inh	StopGo reporter	Cruzain Triton	Cruzain inh noDet	Lassa entry inh	RE007 growth inh	MARV entry inh
`Cc1cccc(NC(=O)CCS(=O)(=O)c2cccc3nonc23)c1C` in the list: 3%	-15%	6%	.	.	.	6%	28%[46.1 µM]
`FC(F)(F)c1ccc(NC(=S)NCc2ccccc2)cc1` in the list: -4%	.	12%	.	.	-10%	7%	?
`ClCCN1CCSCC1` in the list: .	.	-4%	.	.	-15%[46.1 µM]	-16%	-5%[46.1 µM]
`Cc1cc(-c2csc(N)n2)c(C)n1-c1ccc(Cl)c(Cl)c1` in the list: ?	14%	-7%	-8.1%	13µM*	26%	1%	-2%

Assay outcomes from PubChem.
